# VACV E9 pol inh: vaccinia E9 polymerase processive synthesis inhibition; in vitro processive DNA synthesis, absorbance read-out; active compounds read low; some inactives read as strong as hits; normalized absorbance, % (test concentration not listed); actives 0.94% (n = 46,000); AID 493162;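 active means replicate mean up to 90% and picked by the depositor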;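 further: 100% = median of the test wells of a plate; 100 nL library stock went into each well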
# Numbers without * were called inactive. Not all compounds are listed. The share of hits here may be higher or lower than overall.
SMILES,VACV E9 pol inh
O=C1CCCC2=C1C(c1cccnc1)CC(=O)N2c1ccccc1C(F)(F)F (centres undefined),93
CC1CCCC(C)N1C(=O)COc1ncnc2ccccc12 (centres undefined),105
O=C1C=C(NCc2ccco2)CC(c2ccccc2)C1 (centres undefined),99
Cc1csc(NC(=O)CN2C(=O)COc3cc(S(=O)(=O)N4CCC(C)CC4)ccc32)n1,74
O=S(=O)(NC1(C(F)(F)F)OCCO1)c1ccccc1,116
CCC(=O)NCC(=O)Nc1ccc(Br)cc1C(=O)c1ccccc1,101
O=C(/C=C/c1cccc(Br)c1)N1CCCC1,90
Cc1ccc(C(O)c2nccc3ccccc23)cc1 (centres undefined),107
O=C(C1CCCN(S(=O)(=O)c2cccc3cccnc23)C1)N1CCc2ccccc21 (centres undefined),98
COc1ccc(-c2nc(-c3ccncc3)[nH]c(=O)n2)cc1,91
N#C/C(N=Cc1cccs1)=C(\C#N)NCc1ccccc1Sc1ccc(Cl)cc1,98
CC(C)CC1NC(=O)N(c2ccccc2)C1=O (centres undefined),102
CCOC(=O)c1sc(C)c2c1NC(C)(c1ccccc1)NC2=O (centres undefined),97
O=S(=O)(Cc1ccc2nonc2c1)c1cccs1,92
CSc1nc2ccc(NC(=O)c3coc4ccccc4c3=O)cc2s1,100
O=C1NC(=O)C(=Cc2ccc(SCc3ccc(Cl)cc3)o2)C(=O)N1,103
O=C(CC(NC1CC1)C(=O)O)c1ccc(Cl)cc1 (centres undefined),100
CC1(C)CC(=O)C=C(Nc2ccc(F)cc2)C1,102
Cc1cc(NC(=O)C(C)Sc2nc(-c3ccccc3)cc(C(F)(F)F)n2)no1 (centres undefined),101
CN(C)c1nc(-c2ccccc2)nc2c1sc(=S)n2-c1ccccc1,112
CCN(c1ccccc1)S(=O)(=O)c1cccs1,100
O=C(Nc1n[nH]c(C(F)(F)F)n1)c1ccc(F)cc1,102
CSc1sc(C(=O)/C=C/N(C)C)c(-c2ccccc2)c1C#N,102
O=C1/C(=C/c2ccccn2)CC/C1=C\c1ccccn1,100
COC(c1cccs1)c1c(C)[nH]c2ccccc12 (centres undefined),100

# Of the compounds above, five have a carbonyl joined to an NH by a bond outside any ring:
SMILES,VACV E9 pol inh
Cc1csc(NC(=O)CN2C(=O)COc3cc(S(=O)(=O)N4CCC(C)CC4)ccc32)n1,74
CCC(=O)NCC(=O)Nc1ccc(Br)cc1C(=O)c1ccccc1,101
CSc1nc2ccc(NC(=O)c3coc4ccccc4c3=O)cc2s1,100
Cc1cc(NC(=O)C(C)Sc2nc(-c3ccccc3)cc(C(F)(F)F)n2)no1 (centres undefined),101
O=C(Nc1n[nH]c(C(F)(F)F)n1)c1ccc(F)cc1,102

# Carrying on:
SMILES,VACV E9 pol inh
CCN1C(=O)/C(=C\c2ccc(C)o2)SC1=S,99
COc1ccccc1NC(=O)CC1C(=O)Nc2ccccc2N1C(=O)c1ccccc1 (centres undefined),93
COc1ccc(-c2cn3c(n2)-c2ccccc2C3)cc1OC,95
COc1cc(OC)cc(C2=NC(C)(C)CO2)c1,100
Cc1noc(C)c1S(=O)(=O)/N=C/N(C)C,101
Cc1c(Br)cc(C(=O)O)c(C)c1C,103
Cc1ccc(NC(=O)CCCN2C(=O)S/C(=C/c3ccccc3)C2=O)cc1,98
N#C/C(=C\Nc1ccc(C(N)=O)cc1)c1nc(-c2cccc3ccccc23)cs1,100
CCc1ccc(NC(=O)Cn2c(=O)n(C(C)C)c(=O)c3oc4ccccc4c32)cc1,102
O=C(CS(=O)(=O)c1cn(Cc2ccc(Cl)cc2)c2ccccc12)N1CCCC1,91
CC(C)OC(C)n1cccc1-c1ccccc1 (centres undefined),100
CC(C)(C)NS(=O)(=O)c1ccccc1,105
CCN1C(=O)c2cccc3c(S(=O)(=O)N4CC(C)OC(C)C4)ccc1c23 (centres undefined),102
COC(C)(OCCn1c2ccccc2c2ccccc21)c1ccccc1 (centres undefined),102
Cc1ccc2nc(-c3ccc(NC(=O)Nc4ccccc4)cc3)sc2c1,97
CN(C(=O)CSc1nc(-c2cccs2)cc(C(F)(F)F)n1)c1ccccc1,107
CCc1nn(CC(=O)N2CCC(C(N)=O)CC2)c(=O)c2cc3sccc3n12,91
COc1ccccc1NC(=O)COC(=O)c1ccccc1Br,112
CC(C(=O)OCC(=O)c1ccccc1)N1C(=O)C2C3C=CC(C3)C2C1=O (centres undefined),100
CC(C)(C)NC(=O)CSc1ccc(Cl)cc1,100
Cc1oc(C(C)(C)C)c(CN2CCOCC2)c1C(=O)O,91
Cc1ccc(Cn2c(=O)n(Cc3ccccc3)c(=O)c3c4c(sc32)CCC4)cc1,98
FC(F)(F)c1cccc(N2CCNC2=S)c1,71
CNC(=O)/C(=C\c1ccc(OC)cc1)NC(=O)c1ccccc1,96
O=c1[nH]cc(COCc2ccccc2)c(=O)[nH]1,100

# Laid out differently: four of the compounds above
O=C(CS(=O)(=O)c1cn(Cc2ccc(Cl)cc2)c2ccccc12)N1CCCC1
  VACV E9 pol inh: 91
CC(C)OC(C)n1cccc1-c1ccccc1 (centres undefined)
  VACV E9 pol inh: 100
CC(C)(C)NS(=O)(=O)c1ccccc1
  VACV E9 pol inh: 105
CCN1C(=O)c2cccc3c(S(=O)(=O)N4CC(C)OC(C)C4)ccc1c23 (centres undefined)
  VACV E9 pol inh: 102

# Going on with the list.
SMILES,VACV E9 pol inh
Nc1ccccc1SCC(=O)N1CCc2ccccc21,79*
COc1ccc(C(=O)NCCC(C)C)cc1,99
NC(=S)c1sccc1CS(=O)c1ccc(Cl)cc1 (centres undefined),100
Cc1cccc(C)c1OC(=O)Cc1ccccc1,100
Fc1ccc2c(c1)CN(c1ccccc1F)CO2,99
NNC(=S)Nc1ccccc1Cl,100
COc1ccccc1CNC(=O)Cn1cccc1,101
CCCc1cc(=O)oc2cc(OCC)ccc12,95
CC(C)(C)CC(=O)NCc1nc(-c2ccccc2)no1,98
C=CCNc1nc(-c2ccccc2)nc(-c2ccccc2)c1C#N,108
CCOc1ccc(NC(=O)c2ccc3c(c2)N(Cc2ccc(C)cc2)CCS3)cc1,92
CC1=CCC2C(=O)N(c3cccc(C(F)(F)F)c3)C(=O)C2C1 (centres undefined),100
Brc1ccc(-n2cccc2)cc1,111
CS(=O)(=NS(=O)(=O)c1cc(S(=O)(=O)c2ccccc2)cs1)c1ccc(Cl)cc1 (centres undefined),98
O=C(Cn1cnc2c(nnn2Cc2ccc(Cl)cc2)c1=O)N1CCCc2ccccc21,101
COc1ccc(N2CCN(C(c3cccs3)C(C)NC(=O)c3ccccc3OC)CC2)cc1 (centres undefined),105
O=C(Oc1ccc2ccc(=O)oc2c1)N1CCOCC1,102
Cc1cccc(OCC(O)Cn2cnc3ccccc32)c1 (centres undefined),121
COc1c(Cl)cccc1-c1cn2ccc(C)cc2n1,89
CC(C)(CN1CCc2ccccc2C1)NS(=O)(=O)c1ccccc1,89
CC(=O)O[C@@H]1[C@@H](O)CN[C@@H]1Cc1ccccc1,100
CC1CCCCN1C(=O)CSc1nnc(-c2ccc(Cl)cc2)o1 (centres undefined),105
O=C1S/C(=C\c2ccc3c(c2)OCO3)C(=O)N1Cc1ccccc1F,100
O/N=C(\Cc1nc2ccccc2s1)c1ccccc1,95
CC1C(C#N)=C(N)OC2=C1C(=O)CC(c1ccccc1)C2 (centres undefined),103

# A different layout for some results above:
SMILES: Cc1ccc(NC(=O)CCCN2C(=O)S/C(=C/c3ccccc3)C2=O)cc1
  VACV E9 pol inh = 98
SMILES: COc1ccccc1NC(=O)CC1C(=O)Nc2ccccc2N1C(=O)c1ccccc1 (centres undefined)
  VACV E9 pol inh = 93

# The main list resumes, starting 8 compounds before the break.
SMILES,VACV E9 pol inh
Cc1cccc(OCC(O)Cn2cnc3ccccc32)c1 (centres undefined),121
COc1c(Cl)cccc1-c1cn2ccc(C)cc2n1,89
CC(C)(CN1CCc2ccccc2C1)NS(=O)(=O)c1ccccc1,89
CC(=O)O[C@@H]1[C@@H](O)CN[C@@H]1Cc1ccccc1,100
CC1CCCCN1C(=O)CSc1nnc(-c2ccc(Cl)cc2)o1 (centres undefined),105
O=C1S/C(=C\c2ccc3c(c2)OCO3)C(=O)N1Cc1ccccc1F,100
O/N=C(\Cc1nc2ccccc2s1)c1ccccc1,95
CC1C(C#N)=C(N)OC2=C1C(=O)CC(c1ccccc1)C2 (centres undefined),103
O=C(c1ccccc1)N1N=C2CCCCC2C1(O)C(F)(F)F (centres undefined),100
CCOC(=O)N1CCN(C(=O)CN(Cc2cccc(C)c2)S(=O)(=O)c2ccc(Cl)cc2)CC1,100
COc1ccc2c(c1)NC(c1ccc(N(C)C)cc1)c1cccn1-2 (centres undefined),99
Cc1ccc(C(=O)N/C(=C/c2ccco2)C(=O)N2CCOCC2)cc1,98
CC1(C)C2CCC1(CS(=O)(=O)Nc1cccc(C(F)(F)F)c1)C(=O)C2 (centres undefined),100
O=C1Nc2ccc(Cl)cc2/C1=C/c1ccccc1,100
O=C(Nc1ccccc1)C1CCC1,104
CCC1(COCc2ccccc2)CCC(c2ccccc2)O1 (centres undefined),100
CC[C@@H]1[C@H]2CCCCN3[C@H]2[C@H](C[C@H]3[C@@H]2C[C@H](C)C(=O)O2)[C@@H]2[C@H]1OC(=O)[C@H]2C,98
O=C(COC(=O)c1n[nH]c2ccccc12)Nc1ccccc1,101
COc1ccc(OC(=O)c2cnc3n(c2=O)CCS3)cc1,89
Cc1ncoc1C(=O)Nc1ccc(C(N)=O)cc1,104
CCOc1ccccc1N(CC)C(=O)C1CCCN(c2ncnc3c2nc2n3CCCCC2)C1 (centres undefined),108
N#C/C(=C\N1CCOCC1)S(=O)(=O)Cc1ccc(Cl)cc1,87
C=CCN1C(=O)/C(=C/C(=O)OCC)c2ccccc21,99
O=c1n(-c2ccccc2)c(=O)n2n1C1CCC2C1,100
COc1ccc(C)cc1NCC(=O)Nc1ncc(Cl)c(C)c1Cl,101
CC(=O)Nc1ccc(Nc2nc3c(S(=O)(=O)c4ccc(C)c(C)c4)nnn3c3ccccc23)cc1,101
Fc1ccccc1-c1nc(-c2cccnc2)no1,101
COC(=O)NC1CSCC1OC(=O)CCCN1C(=O)c2ccccc2C1=O (centres undefined),100
Clc1c2ccccc2c(/C=N/n2cnnc2)c2ccccc12,94
CC(=O)N1c2ccc(S(=O)(=O)NC(C(=O)NCc3ccccc3)C(C)C)cc2CC1C (centres undefined),88
O=C(NCc1ccccc1)c1cccc(NC2=NC3CS(=O)(=O)CC3S2)c1 (centres undefined),104
CCCC(C)C(=O)NCc1ccncc1 (centres undefined),104
Oc1oc(-c2ccco2)nc1C=Nc1ccccc1,100

# (more compounds)
SMILES,VACV E9 pol inh
C[C@]12C=CC(=O)C=C1CCC1C2C(=O)C[C@@]2(C)C1CC[C@]2(O)C(=O)CO (some centres undefined),100
CCOc1ccccc1C(=O)n1cc(Cl)cn1,100
CCOc1cc(-c2nc(-c3ccc(C)nc3OC)no2)cc(OCC)c1OCC,94
Cc1ccc(-c2nnc(SCC(=O)Nc3cc(C)ccc3C)n2N)cc1,93
S=C(Nc1cccc(Cl)c1)N1CCCN(Cc2ccccc2Cl)C1,111
O=C(COc1ccc2ccccc2c1)c1ccc(O)cc1O,98
Cc1ccc(NC(=O)Nc2ccc3c(c2)N(C)C(=O)CS3)cc1,100
CSc1sc(-c2ccn[nH]2)c(-c2ccco2)c1C#N,89
COC(=O)CC[C@@H](C)[C@H]1CC[C@H]2[C@@H]3CC[C@@H]4C[C@H](O)CC[C@]4(C)[C@H]3C[C@H](O)[C@]12C,100
Cc1ccc(NC2SC(=O)NC2=O)cc1Cl (centres undefined),99
COc1ccc(CC(=O)NCC2COc3ccccc3O2)cc1OC (centres undefined),100
CCCCS(=O)C1CCCCC1OC(=O)c1ccccc1 (centres undefined),101
O=C1c2ccccc2C(=O)N1CCCSc1nccn1-c1cc(Cl)ccc1Cl,106
Nc1ccc(S(=O)(=O)Nc2ccc(I)cc2)cc1,84
O=S(=O)(c1ccccc1)N1CCC2CCCCC2C1 (centres undefined),94
Cc1cc(C)cc(Oc2coc3cc(OC(=O)C4CCCCC4)ccc3c2=O)c1,100
COc1cc(Cn2c(-c3ccc(O)c(OC)c3)nc3ccccc32)ccc1O,101
Cc1ccc(NC(=O)CSC2=NCCS2)c(C)c1,101
CCN(CC)Cc1oc(CO)cc(=O)c1O,100
O=C(O)C1CC(O)CN1Cc1ccccc1 (centres undefined),99
FC(F)(F)c1cccc(CSc2ncn[nH]2)c1,98
Cc1[nH]c2ccccc2c1C(=O)CSc1cccc[n+]1[O-],104
Cc1cc(C)n(CC(O)CN2C(=O)NC(C)(C)C2=O)n1 (centres undefined),100
O=C(CSc1c[nH]c2ccccc12)N1CCc2ccccc21,100
Cc1cc(Cl)c(C(N)=O)c(C)n1,100

# Next section
SMILES,VACV E9 pol inh
c1ccc(Sc2c(-c3ccccc3)nc3ncccn23)cc1,100
O=C(O)COCC(=O)Nc1ccc2c(c1)C(=O)OC2,111
CCCCc1c(C)nc(SCC(=O)O)[nH]c1=O,103
O=C(NCCC1=CCCCC1)c1cc2cc3ccc(Cl)cc3nc2o1,101
CCCc1nnc2n1N=C(c1ccc(OC)c(OC)c1)CS2,100
Cc1sc2ncn3cnnc3c2c1-c1ccc(F)cc1,97
Cc1c(C(=O)O)sc(=S)n1CCOc1ccccc1,95
CC12CC3(C(=O)O)C1CCC23C (centres undefined),106
Oc1cccc(C=Nc2ccc(N3CCCCC3)cc2)c1O,104
CCNc1ccc(C2(O)C(=O)c3ccccc3C2=O)cc1,98
Cc1ccc(-n2c(C)cc(C)c(C#N)c2=O)cc1Cl,100
CCOc1ccc(-n2c(SCC(N)=O)nc3ccccc3c2=O)cc1,97
C=CCc1ccccc1OCC(O)CN1CCN(c2ccccc2F)CC1 (centres undefined),96
CC1CCc2nc(NC(=O)CN3C(=O)CCC3=O)sc2C1 (centres undefined),101
CC1CCN(C(=O)Nc2ccccc2C(F)(F)F)CC1,98
CCCSc1nnc(NC(=O)c2ccccc2Br)s1,101
CCN1CCN(C(=O)c2ccc(-c3ccccc3)cc2)CC1,87
CC1=CC(C)(C)C(C(=O)O)C(C(=O)O)C1 (centres undefined),100
CCN(CC)S(=O)(=O)c1ccc(-c2cn3ccccc3n2)cc1,100
NC(Cc1ccc(Cl)cc1)C(=O)O (centres undefined),100
CCOC(=O)c1cccc(NC(=O)CCc2ccccc2)c1,98
COC(=O)CC1(C(=O)OC)Oc2ccc(Br)cc2C(=O)N1c1ccc(F)cc1F (centres undefined),97
O=c1cc(-c2nc3ccccc3s2)oc2ccccc12,104
O=c1c2ccccc2nc(-c2ccccc2)n1-c1ccccc1,100

# Screening data as filed in PubChem BioAssay.
